ClpP mod – qHTS Assay for Activators of ClpP. ATP-dependent Clp protease proteolytic subunit (Bacillus subtilis (strain 168)), P80244. purified B. subtilis ClpP, FRET peptide cleavage, 20 min. Potency, µM (titrated, usually from 57.5 µM), without a hit: at the top dose activity change, negative = active. hit rate 1.9% among 340,000. AID 651965, 2013; active = well fitted falling curve with a large enough effect; inconclusive = small, poorly fitted or top-dose-only effect; inactive = no such curve, though single readings can be large or run the other way; also: potency is read from the fitted curve at half-maximal effect; the source files actives as falling curves though it sought activators and does not explain the sign; nearly all actives have a fitted effect of over 65% in size; many hits overshoot -100%
Target sequence (P80244 whole entry, looked up): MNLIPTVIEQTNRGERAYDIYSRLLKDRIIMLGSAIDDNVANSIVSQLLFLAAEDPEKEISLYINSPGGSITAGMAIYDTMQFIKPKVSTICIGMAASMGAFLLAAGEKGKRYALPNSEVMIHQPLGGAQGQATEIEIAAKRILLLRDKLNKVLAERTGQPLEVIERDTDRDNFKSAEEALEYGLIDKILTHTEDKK
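Purified B. subtilis ClpP, 10 microg/mL final in Tris/HCl pH8 with KCl, BSA, glycerol and Tween-20, cleaved an Abz/nitrotyrosine-quenched decapeptide. Fluorescence (ex 320, em 430) was read at 0 and 20 min at room temperature. Delta was normalized to 5.8 microM ADEP and DMSO/no-enzyme controls.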
TRPML1 blocker – human mucolipin-1 channel inhibition. Q9GZU1. AID 624415. TRPML1-inducible cells, Ca2+ dye fluorescence, FDSS; hits give low values; inhibition of EC80 agonist-evoked calcium signal. activity change, negative = inhibition, % (concentration not given with the values). hit rate 0.02% among 390,000; in the data active means activity change below about -50%; inconclusive means about -30% to -50%; inactive means above about -30%;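 also: stimulus is agonist 54-4 at its EC80 concentration; % is scaled to controls: 0 for no effect and ±100 for the full control effect; compound concentration not given in the record; the text of the record puts the active cut at -80%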
Target sequence (Q9GZU1 whole entry, looked up): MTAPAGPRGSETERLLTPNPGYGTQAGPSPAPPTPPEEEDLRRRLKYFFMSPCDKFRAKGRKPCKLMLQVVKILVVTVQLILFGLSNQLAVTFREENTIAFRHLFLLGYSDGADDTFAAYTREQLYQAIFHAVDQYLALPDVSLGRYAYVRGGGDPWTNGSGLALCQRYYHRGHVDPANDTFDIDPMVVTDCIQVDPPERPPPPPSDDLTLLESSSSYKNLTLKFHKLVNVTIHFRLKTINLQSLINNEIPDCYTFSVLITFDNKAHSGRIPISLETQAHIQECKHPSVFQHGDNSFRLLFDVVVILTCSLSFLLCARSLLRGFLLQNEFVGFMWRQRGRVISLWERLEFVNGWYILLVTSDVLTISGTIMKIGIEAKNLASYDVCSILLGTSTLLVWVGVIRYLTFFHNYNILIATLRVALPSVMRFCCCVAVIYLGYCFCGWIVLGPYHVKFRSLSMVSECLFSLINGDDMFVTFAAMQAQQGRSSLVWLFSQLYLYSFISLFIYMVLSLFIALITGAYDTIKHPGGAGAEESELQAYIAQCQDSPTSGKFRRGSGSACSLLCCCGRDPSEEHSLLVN
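TRPML1-DL cells, Tet-induced overnight (~16 h, 37 °C) at 1,500 cells/well, were loaded with Ca8 no-wash dye plus quencher for 45-90 min at room temperature. Compounds were pinned during FDSS kinetic reading; agonist 54-4 at EC80 (4 uM final) then added.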
Starred values were filed as active, the others as inactive; u = inconclusive; & = joins results of further samples. The list is partial; rates above refer to the full screens.

smiles	ClpP mod	TRPML1 blocker
COc1ccc(C)cc1NC(=O)C1COc2ccccc2C1 (stereo not drawn)	1.1%	-10
Cc1cc(Nc2ccc(Cl)cc2)n2cnnc2n1	-0.7%	4
CCOc1cc(C(=O)Nc2ccc(-c3cn4cccnc4n3)cc2)cc(OCC)c1OCC	16µM*	1
Cc1ccc(C)c(Nc2nc3c(S(=O)(=O)c4ccc(Br)cc4)nnn3c3ccsc23)c1	28µM*	15
CCc1cnc2c(c1SCC(=O)N1CCC(C)CC1)c(=O)n(C)c(=O)n2C	0.3%	-3
O=C(CCC1N=C2c3ccccc3N=C(SCc3ccccc3F)N2C1=O)NCc1ccccc1 (stereo not drawn)	4.4%	-14
COc1ccc(NC(=O)CCn2nc(-c3ccccc3OC)c3c(C)cc(C)nc32)cc1	u	-16
COc1cc(NC(=O)CSc2nc3nc(C)c(Cc4ccccc4Cl)c(C)n3n2)cc(OC)c1	u	5
Cc1ccc2c(c1)c1c(c(=O)n(Cc3ccccc3)c(=O)n1Cc1cccc(C(F)(F)F)c1)n2C	4.0%	13
O=C(NCc1ccc(F)cc1)c1cc(Sc2ccc(F)cc2F)nc2ccccc12	-10%	15
CCc1ccc(NC(=O)CSc2ncc(S(=O)(=O)c3cc(C)ccc3C)c(=O)[nH]2)cc1	0.8%	14
COc1ccc(NC(=O)CN2C(=O)c3cccnc3Sc3ccccc32)cc1OC	-11%	-2
Cc1ccccc1NC(=O)CSc1ccc(-c2cccs2)nn1	-7.9%	-11
Cc1nc(SCC(=O)Nc2ccccc2F)[nH]c(=O)c1Cc1ccccc1	0.6%	14
Cc1cc(C)cc(OCC(=O)Nc2ccc(-c3nc4ccccc4o3)cc2)c1	4.2%	11
Cc1cc(C)cc(C(=O)N2CC(=O)Nc3ccc(C)cc3C2c2ccccc2)c1 (stereo not drawn)	1.4%	12
O=C(Oc1ccccc1Cl)c1cc(-c2ccc3c(c2)OCCO3)on1	u	-11
Cc1cc(C)cc(NC(=O)c2cc(S(=O)(=O)N3CCC(C)CC3)cn2C)c1	u	0
Cc1c(C(=O)Nc2ccccc2)sc2nc(-c3cc4cc(Cl)ccc4oc3=O)[nH]c(=O)c12	-4.9%	39
O=c1ccc2cc(S(=O)(=O)Nc3ccc(F)c(Cl)c3)ccc2[nH]1	-5.8%	19
Cc1cc(C)c2nc(NC(=O)c3ccc(S(=O)(=O)N4CCc5ccccc54)cc3)sc2c1	-4.0%	8
CN(C(=O)C1CCN(c2ncnc3c2nc2n3CCCCC2)CC1)c1ccccc1F	1.6%	17
CN(c1nnc(NC(=O)Nc2ccc(Br)cc2)s1)C1CCCCC1	-1.1%	40
COC(=O)c1cccc(Nc2c(-c3cc(Br)ccc3O)nc3nc[nH]n23)c1	-9.9%	u

Among those listed so far, 5 contain an NH in an aromatic ring:
smiles	ClpP mod	TRPML1 blocker
CCc1ccc(NC(=O)CSc2ncc(S(=O)(=O)c3cc(C)ccc3C)c(=O)[nH]2)cc1	0.8%	14
Cc1nc(SCC(=O)Nc2ccccc2F)[nH]c(=O)c1Cc1ccccc1	0.6%	14
Cc1c(C(=O)Nc2ccccc2)sc2nc(-c3cc4cc(Cl)ccc4oc3=O)[nH]c(=O)c12	-4.9%	39
O=c1ccc2cc(S(=O)(=O)Nc3ccc(F)c(Cl)c3)ccc2[nH]1	-5.8%	19
COC(=O)c1cccc(Nc2c(-c3cc(Br)ccc3O)nc3nc[nH]n23)c1	-9.9%	u

The list goes on:
smiles	ClpP mod	TRPML1 blocker
Cc1ccc(NC(=O)c2c(NC(=O)c3ccccc3Cl)sc3c2CCC3)cc1	0.3%	1
Cc1nn(CC(=O)NCc2ccc(N(C)C)cc2)c(=O)c2nn(-c3ccccc3)c(C)c12	0.3%	4
CCCC(=O)NC1CC(=O)N(c2ccc3c(c2)OCCO3)C1 (stereo not drawn)	1.1%	7
COC(=O)CC1c2cc(OC)c(OC)cc2CCN1C(=O)Nc1ccc(C)cc1Cl (stereo not drawn)	2.8%	-16
CCOC(=O)c1ccc(-c2ccc(/C=C(\C#N)C(=O)Nc3ccc(C)cc3OC)o2)cc1	0.7%	-13
Cc1ccc(Cl)cc1NC(=O)c1nnn(Cc2ccccc2)c1N	-4.9%	-4
COc1ccccc1NC(=O)n1ncc2c(C)cccc21	-1.3%	-1
COc1cccc(CNC(=O)CSc2nc(=O)[nH]c3c2CCCC3)c1	-1.5%	-16
CCNC(=O)C1(C)CCN(C(=O)c2cc(C)oc2C)C1 (stereo not drawn)	-1.4%	-14
Cc1ccc(S(=O)(=O)NC(=O)C2(C)CCN2C(=O)C2CC2)cc1 (stereo not drawn)	-1.3%	6
CC(=O)Nc1ccc(S(=O)(=O)N2CCN(c3ccccc3)CC2)cc1	0.6%	-9
Cc1cc(C)cc(NC(=O)CSc2oc(-c3cccs3)nc2S(=O)(=O)c2ccc(Br)cc2)c1	-0.2%	-3

Additional entries follow.
Value order: ClpP mod | TRPML1 blocker
Cc1ccc(-n2nc(C(=O)Nc3ccc(Cl)cn3)c3c4ccccc4n(C)c3c2=O)cc1
 : -1.6% | 29
CCCNC(=O)CCc1c(C)nc2nc(CNC(=O)c3ccccc3)nn2c1C
 : -0.1% | -9
CCOC(=O)CCn1nc(C)c2c(C)n(-c3ccccc3)nc2c1=O
 : -3.2% | 1
CCCCCSc1nnc2c(n1)OC(CC)Nc1ccc(Br)cc1-2 (stereo not drawn)
 : -0.9% | -9
COc1ccc(OC)c(NC(=O)Cn2c(=O)n(-c3cccc(C)c3)c(=O)c3c2c2cc(C)ccc2n3C)c1
 : u | -6
CCOc1ccccc1NC(=O)C1CCN(S(=O)(=O)c2cccc3nonc23)CC1
 : 1.6% | -16
COC(=O)C(CCSC)NC(=O)Cn1ncc2c([nH]c3ccccc32)c1=O (stereo not drawn)
 : -24% | -2
Cc1ccc(S(=O)(=O)c2nc(-c3ccco3)oc2SCc2ccc(F)cc2)cc1
 : -5.9% | 32
CN1CCN(C2(CNC(=O)c3ccc(C(C)(C)C)cc3)CCCCC2)CC1
 : -3.7% | 22
CCC(C(=O)NCCc1cc(OC)ccc1OC)n1nc(C)c2sc3ccccc3c2c1=O (stereo not drawn)
 : -4.9% | 16
Cc1ccc(-n2c3nc(=O)[nH]c(=O)c-3cc3c(Cl)cccc32)cc1
 : -14% | -11
O=C(CC(NCc1cccnc1)C(=O)O)Nc1ccc(F)cc1 (stereo not drawn)
 : -2.2% | 12
CC1=C(C(=O)N2CCOCC2)CC(CC(=O)NCCc2ccccn2)C(=O)N1CCC1=CCCCC1 (stereo not drawn)
 : -0.4% | -13
COC(=O)c1sccc1S(=O)(=O)N(CC(=O)Nc1cccc(C)c1C)c1ccc(C)c(C)c1
 : 1.1% | -11
Cc1oc2c(C)c3oc(=O)c(CCC(=O)N4CCCCC4)c(C)c3cc2c1C
 : u | -16
Cc1cc(C)cc(NC(=O)CN2C(=O)c3ccccc3Sc3ncccc32)c1
 : -0.9% | -12
CC1CCN(c2ncnc3c2c(-c2ccccc2)cn3-c2ccc(Br)cc2)CC1
 : -2.7% | -11
CCN1CCN(c2cc3c(cc2F)c(=O)c(S(=O)(=O)c2cc(C)cc(C)c2)cn3CC)CC1
 : 4.3% | -9
COc1cc(CNCCSc2nnnn2C)ccc1OCc1ccc(Cl)cc1Cl
 : -2.6% | -4
Cc1ccc(CNC(=O)c2ccc3c(=O)n(-c4ccccc4)c(=O)[nH]c3c2)cc1
 : -8.1% | 7
O=C(NCCc1ccccc1)c1ccc2c(c1)N(Cc1ccc(F)cc1)C(=O)c1ccccc1S2
 : -5.1% | 30
CCOc1ccc(C(=O)c2cn(CC(=O)Nc3ccc4c(c3)OCO4)c3ccc(OCC)cc3c2=O)cc1
 : -1.2% | -12
COc1cccc(CNC(=O)c2nn(-c3ccc(C)cc3)c(=O)c3c2c2ccccc2n3C)c1
 : -12% | 69
Cc1nc2ccc(S(=O)(=O)N(CC(=O)Nc3cccc(Cl)c3)Cc3ccccc3)cc2s1
 : -4.9% | 23
CCOC(=O)N1CCc2c(sc(NCc3ccc(OCC)cc3)c2C(=O)Nc2ccc(OC)cc2OC)C1
 : -1.4% | -6
COc1ccc(/C=C/C(=O)Nc2ccc(Cl)cc2Cl)cc1
 : -15% | 34
CSc1nc2c(sc3ccccc32)c(=O)n1Cc1ccc(C)cc1
 : -6.1% | -10
COc1cc(OC)c(OC)cc1CNCCSc1nnnn1-c1ccccc1
 : -1.4% | -20
COc1ccc(N(Cc2cccs2)C(=O)c2ccco2)cc1
 : 0.7% | -8
CCOc1ccc(OCC)c(NC(=O)c2nnn(CC(=O)Nc3cc(Cl)ccc3OC)c2N)c1
 : 3.8% | -10
Cc1coc2cc3oc(=O)c(CCC(=O)N4CCCCC4)c(C)c3cc12
 : 4.2% | 5
Cc1nnc(N2CCN(C(=O)NC(C)C)CC2)c2nn(-c3ccccc3)c(C)c12
 : -11% | -14
COc1ccc(OC)c(NC(=O)c2c(NCc3ccc(C)o3)sc3c2CCCCC3)c1
 : 0.2% | 6
Cc1ccc(Nc2c(-c3ccc(C)s3)nc3ccccn23)cc1
 : 4.1%&3.2% | 4
Cc1cc(C)c(S(=O)(=O)NCC(c2cccs2)S(=O)(=O)c2ccccc2)c(C)c1 (stereo not drawn)
 : 5.4% | 10
O=C(NC1CCCC1)c1ccc2c(c1)N(Cc1ccccc1F)C(=O)c1ccccc1S2
 : -1.7% | 58
COc1ccc(NC(=O)c2ccc(NC(=O)CCS(=O)(=O)c3cccs3)cc2)cc1Cl
 : -1.0% | 5
Cc1ccc(CNC(=O)C(C)n2c(=O)cc(C(F)(F)F)c3c(C)nn(C)c32)cc1 (stereo not drawn)
 : 4.0% | -18
Cc1ccc(OCc2cc(=O)n3cc(C)sc3n2)c(NC(=O)c2ccco2)c1
 : -1.8% | 9
CSc1cccc(Nc2nc3c(S(=O)(=O)c4ccccc4)nnn3c3ccc(Cl)cc23)c1
 : -11% | -4
Cc1ccc(Cn2c(=O)n(-c3cc(C)cc(C)c3)c(=O)c3oc4ccccc4c32)cc1
 : u | 9
CCOc1ccc(NC(=O)Cn2cc(C(=O)c3ccc(F)cc3)c(=O)c3cc4c(cc32)OCCO4)cc1
 : -1.9% | 42
CCOC(=O)c1ccc(Nc2ncnc3c2cnn3-c2cccc(Cl)c2)cc1
 : -19% | -17
COc1ccc2c(C)c(CCC(=O)NCc3ccc(Cl)cc3)c(=O)oc2c1C
 : 4.2% | u
COc1ccccc1N1CCN(c2nc3ccc(C)cc3nc2-n2nc(C)cc2C)CC1
 : -1.8% | -10
CC(=O)N1CCc2c(sc3c2c(=O)n(Cc2ccccc2)c(=O)n3Cc2ccccc2F)C1
 : -9.4% | 52
CCN(CC)CCNC(=O)c1ccc2c(c1)sc1nc(-c3ccc(F)cc3)cn12
 : u | 12
Cc1cc(C)cc(NC(=O)Cn2cc(C(=O)c3ccccc3)c(=O)c3ccc(C)nc32)c1
 : -4.2% | 33
Nc1ncnc2c1ncn2[C@@H]1O[C@H](CNC(=O)[C@@H](N)Cc2ccc(C(=O)c3ccccc3)cc2)[C@@H](O)[C@H]1O
 : 1.6% | -1
CC(=O)N1c2ccc(S(=O)(=O)NCCC(=O)Nc3ccc(C)cc3Br)cc2CC1C (stereo not drawn)
 : -1.5% | -20
Cc1cccc(C)c1NC(=O)c1nc(S(C)(=O)=O)ncc1N(Cc1ccc(F)cc1)Cc1ccco1
 : -2.9% | 4
Cc1cc(Nc2cccc(Cl)c2)nc2ccc(NC(=O)Cc3ccc(Cl)cc3)cc12
 : 3.7% | -13
COc1ccc(CNC(=O)c2cn(-c3cccc(OC)c3)c(=O)c3ccccc23)cc1
 : -12% | -6
O=C(Nc1ccccc1)c1ccc(Cl)c(S(=O)(=O)Nc2ccccc2)c1
 : -0.2% | 13
O=C(c1ccc2c(c1)N(Cc1ccccc1Cl)C(=O)c1ccccc1S2)N1CCCC1
 : -3.6% | 18
COc1ccc(-c2cc(C(F)(F)F)nc(S(=O)(=O)CCCC(=O)Nc3ccccc3C(F)(F)F)n2)cc1OC
 : 4.1% | -19
O=C(Nc1ccccc1F)C(Cc1ccccc1)N1Cc2ccccc2C1=O (stereo not drawn)
 : -1.5% | 59
C=CCc1ccccc1OCc1nc2ccc(C)cc2[nH]1
 : -1.1% | 45
CCOc1ccc(NC(=O)CSc2nc(-c3cccc(Cl)c3)nc3c2Cc2c(CO)cnc(C)c2O3)cc1
 : 0.4% | 11
Cc1ccc(S(=O)(=O)NC(=O)C2(C)CCN2C(=O)C2(c3ccc(Cl)cc3)CC2)cc1 (stereo not drawn)
 : -0.9% | -17

Further compounds:
Value order: ClpP mod | TRPML1 blocker
COc1ccc(-n2ncc(C(=O)Nc3ccc4c(c3)OCO4)c2C2CCN(C(=O)OC(C)(C)C)CC2)cc1
 : -1.4% | -1
COc1cc2[nH]c(=O)n(CCCC(=O)NCc3ccccc3Cl)c(=O)c2cc1OC
 : u | -4
COc1ccccc1CCNC(=O)c1cccn1-c1nnc(N2CCCC2)s1
 : -5.5% | -8
CCC(CC)C(=O)Nc1ccc(OCc2cc(=O)n3ccsc3n2)cc1
 : -9.4% | 8
COC(=O)c1ccccc1NC(=O)c1cc2c(s1)-c1ccccc1OC2
 : 5.1% | -13

Source: PubChem
